# Screening data from PubChem.
# D2 agonist: human D2 receptor agonism in beta-arrestin assay; 0.084% of 360,000 active; P14416; activation, % (test concentration not listed); DiscoveRx PathHunter D2 beta-arrestin, luminescence, 90 min; 100% = 57 uM dopamine signal; in the data active = activation above about 40%; inconclusive = about 15% to 40%; inactive = below about 15%; note: compound concentration not given in the record; the text of the record calls up to 30% inactive
# Target sequence (P14416 whole entry, looked up): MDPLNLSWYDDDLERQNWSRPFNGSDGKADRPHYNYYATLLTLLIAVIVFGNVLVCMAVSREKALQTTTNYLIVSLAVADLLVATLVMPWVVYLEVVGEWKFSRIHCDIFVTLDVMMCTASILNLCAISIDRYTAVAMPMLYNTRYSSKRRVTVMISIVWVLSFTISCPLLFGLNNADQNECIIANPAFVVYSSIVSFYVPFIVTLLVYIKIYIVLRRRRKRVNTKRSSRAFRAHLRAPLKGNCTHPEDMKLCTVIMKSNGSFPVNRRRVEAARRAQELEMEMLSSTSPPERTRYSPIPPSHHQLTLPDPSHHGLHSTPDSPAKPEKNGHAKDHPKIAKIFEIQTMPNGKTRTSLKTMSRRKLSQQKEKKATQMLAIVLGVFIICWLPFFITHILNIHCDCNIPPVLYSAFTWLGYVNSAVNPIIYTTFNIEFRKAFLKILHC
#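 Agonist mode: compounds alone added to overnight-plated D2 PathHunter cells for 90 min at 37 C, with 57 uM final dopamine (EC100) defining full response. Beta-arrestin recruitment detected by chemiluminescent reagent, read after 1 h at ambient temperature.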
# Six1-Eya2 inh: blocks human Six1 binding to Eya2 | Q15475+O00167 | AlphaScreen GST-Six1/His-Eya2 binding, biochemical; stronger effect = lower value; control for the full effect not named in the record | activity change, % (test concentration not listed) | 0.56% of 360,000 active | AID 651725; in the data active = activity change below about -65%; inconclusive = about -30% to -65%; inactive = above about -30%; note: % is set by controls: 0 for no effect and ±100 for the full control effect; compound concentration not given in the record
#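 Compounds are tested against tagged Six1 and Eya2 proteins bridged by glutathione donor and nickel acceptor beads; after a one-hour incubation at 37 °C without light, AlphaScreen emission is recorded.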
# D2 potentiator: human D2 receptor positive allosteric modulation; P14416; DiscoveRx D2 beta-arrestin cells, luminescence, 90 min; 100% = 57 uM dopamine signal; potentiation, % (concentration not given with the values); 0.23% of 360,000 active; active = potentiation of 50% or more; inconclusive = 30% to 50%; inactive = 30% or less;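 note: compound concentration not given in the record; tested on top of an EC20 dose of dopamine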
#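 D2 cells co-treated with compound plus 50 nM dopamine (EC20) for 90 min at 37 deg C to detect potentiation. Beta-arrestin recruitment was read as enzyme-fragment luminescence after 1 h at ambient temperature. Full response was set by 57 uM dopamine.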
# TRPML1 blocker: blocks the human TRPML1 channel; TRPML1-inducible cells, Ca2+ dye fluorescence, FDSS; stronger effect = lower value; inhibition of EC80 agonist-evoked calcium signal; Q9GZU1; AID 624415; activity change, negative = inhibition, % (concentration not given with the values); 0.02% of 390,000 active; in the data active means activity change below about -50%; inconclusive means about -30% to -50%; inactive means above about -30%;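 note: stimulus is agonist 54-4 at its EC80 concentration; % is set by controls: 0 for no effect and ±100 for the full control effect; compound concentration not given in the record; the text of the record puts the active cut at -80%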
# Target sequence (Q9GZU1 whole entry, looked up): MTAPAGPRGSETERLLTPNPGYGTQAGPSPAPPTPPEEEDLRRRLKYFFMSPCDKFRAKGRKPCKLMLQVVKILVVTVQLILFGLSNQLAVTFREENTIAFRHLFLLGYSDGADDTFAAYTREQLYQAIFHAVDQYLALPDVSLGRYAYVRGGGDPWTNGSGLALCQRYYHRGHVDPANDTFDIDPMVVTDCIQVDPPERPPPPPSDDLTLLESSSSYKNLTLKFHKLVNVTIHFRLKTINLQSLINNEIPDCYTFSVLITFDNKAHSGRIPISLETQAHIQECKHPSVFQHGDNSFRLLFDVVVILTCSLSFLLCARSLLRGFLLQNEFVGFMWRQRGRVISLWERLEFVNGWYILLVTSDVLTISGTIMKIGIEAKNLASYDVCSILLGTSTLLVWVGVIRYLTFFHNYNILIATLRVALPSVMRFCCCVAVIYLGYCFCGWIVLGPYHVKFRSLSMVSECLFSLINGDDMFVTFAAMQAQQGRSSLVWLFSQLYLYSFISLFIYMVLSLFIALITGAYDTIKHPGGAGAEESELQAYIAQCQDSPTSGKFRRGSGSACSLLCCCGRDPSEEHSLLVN
#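 Tet-induced TRPML1-DL cells loaded with Ca8 no-wash calcium dye were read kinetically on FDSS. Compound addition was followed by EC80 agonist 54-4 (4 uM final); inhibition was read over 110 s.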
# PINK1 expr mod: modulators of PINK1 expression; AID 624263; Potency, µM (doses to about 76.6 µM), for inactives: at the top dose activation (PINK1 increase), actives largely listed as activators; 0.2% of 410,000 active; PINK1 immunofluorescence, high-content cytometry, 24 h; active = well fitted activation curve with a large enough effect; inconclusive = small, poorly fitted or top-dose-only effect; inactive = flat fitted curve, though single readings scatter; cell line not stated here;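 note: potency is the fitted concentration of half-maximal effect; % of control where 0% means no effect; nearly all actives have a fitted effect of over 65% in size; a mitochondrial uncoupler was the plate control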
#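 Stable cell line, 250 cells/well, 12 h attachment; compounds pinned at 5 concentrations, 24 h; CCCP control. Fixed with nuclear dye, primary antibodies 12 h at 10 degrees C, secondary plus cell stain; laser-scanning cytometer read.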
# TRPML1 agonist: agonists of human TRPML1 channel; Q9GZU1; TRPML1-expressing cells, Ca2+ dye fluorescence, FDSS; host cell line not named in the record; reference of the full effect not given here; activation, % (no concentration beside the values); 0.12% of 410,000 active; AID 624414; in the data active = activation above about 50%; inconclusive = about 30% to 50%; inactive = below about 30%; note: 0% is about no effect; the text of the record puts the active cut at 80%
#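 Calcium fluorescence on an FDSS kinetic reader gave the read-out. Tet-induced TRPML1-DL cells were plated overnight, dye-loaded (Ca8 with quencher, 45-90 min, room temperature, dark), then read 110 s after compound addition, and again 110 s after 4uM final 54-4 (EC80).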
# An asterisk follows results filed as active; u = inconclusive; x = no result given; [ ] = remark or other dose. Not a hit list. Share with any hit: about 1%.
Molecule	D2 agonist	Six1-Eya2 inh	D2 potentiator	TRPML1 blocker	PINK1 expr mod	TRPML1 agonist
O=C(OCc1nc2ccc(Cl)cc2n1CCO)c1ccc(O)cc1	-2.8	9	4	-5	-2.0%	-0.4
CCC1(c2ccccc2)NC(=O)N(CC(=O)NC2(C#N)CCCCC2)C1=O (configuration not stated)	-3.3	11	6	0	0.7%	0.9
COc1ccccc1C(=O)Nc1nnc(SCc2cc(=O)c3cc(Cl)ccc3[nH]2)s1	x	x	x	0	u	-0.1
O=C(Cc1ccc(NC2=NC3CS(=O)(=O)CC3S2)cc1)Nc1ccc(F)cc1 (configuration not stated)	-10	2	-8	4	2.0%	-0.7
CN(C)c1ccc(CNC(=O)Cn2c(-c3cccs3)cc3cc(Cl)ccc32)cc1	x	x	x	22	5.8%	0.7
COc1cccc(/C=N/NC(=O)C(=O)N2CCCCCC2)c1OC	-3.1	1	-35	18	-0.2%	0.9
Cc1cc(C)c(NC(=O)c2cc(C)nc3c2c(C)nn3-c2cccc(F)c2)c(C)c1	x	x	x	15	0.2%	-0.5
O=C(CCS(=O)(=O)c1ccc(Br)cc1)N1CCN(c2ccc(F)cc2)CC1	-0.8	-10	-11	-13	-1.1%	4.3
Cc1cc(C)nc(-n2nc(C)c3c2NC(=O)CC3c2cccc(O)c2)n1 (configuration not stated)	x	x	x	-11	-0.8%	-0.3
COCCn1c(=N)c(C(=O)NCCc2ccccc2)cc2c(=O)n3cccc(C)c3nc21	-4.8	-1	7	1	1.4%	-0.7
Fc1cc(Br)cc(F)c1NC(=S)N1CCOCC1	-3.0	9	-10	-22	1.3%	-1.1
CC(=O)Oc1ccc(-c2nc(-c3cccnc3)no2)cc1	-0.5	5	-6	0	-1.3%	-0.5
Cc1csc2ncc(C(=O)Nc3ccc4c(c3)OCCO4)c(=O)n12	8.0	6	-11	13	0.9%	-0.6
Cc1ccc2[nH]c(CNC(=O)c3ccc(F)cc3)cc2c1	8.4	-4	-6	-13	2.6%	0.0
COc1cccc(Cn2nnc(C(=O)NCCc3ccc(Cl)cc3)c2N)c1	4.6	0	0	6	7.9%	1.2
CCS(=O)(=O)N1CCC(C(=O)NCc2ccco2)CC1	2.0	4	-4	-9	u	0.3
O=S(=O)(NCCN1CCOCC1)c1ccc(Cl)s1	0.3	2	-4	-4	0.1%	-0.3
CCOc1ccccc1-c1nc(CN2CCC(C(=O)N3CCOCC3)CC2)c(C)o1	-3.7	-5	-50	-4	0.9%	0.9
COc1cccc2cc(-c3cc(=O)oc4cc(C)c(OCC(C)=O)cc34)oc12	0.5	9	-8	17	0.9%	0.7
O=C(N/N=C/C=C\c1cccc([N+](=O)[O-])c1)c1ccccn1	-2.3	-4	-1	2	6.1%	0.4
Clc1ccc(-n2cc(COCc3ccccc3)nn2)cc1	-0.2	1	2	-5	-2.3%	1.8
Cc1ccc(NCc2nnc(SCC(=O)N3c4ccccc4Sc4ccccc43)o2)c(C)c1	-2.6	-28	1	-16	0.3%	-0.4
Cc1ccc2[nH]c(=O)c(CN(CCO)C(=O)N(C)C)cc2c1	1.3	4	-9	8	12%[38.3 µM]	0.2
O=C(Nc1ccc(OCc2ccccc2Cl)cc1)c1cccnc1	-3.7	7	-6	-18	4.9%	0.3
COc1cc2c(cc1OC)NC(=O)C2	0.4	1	-5	-25	1.1%	1.1
Cc1nnc(SCC(=O)Nc2ncc(S(=O)(=O)c3ccc([N+](=O)[O-])cc3)s2)s1	11	9	u	-17	1.5%	0.1
CCC(C(=O)OC)(C(=O)OC)c1ccc([N+](=O)[O-])cc1	-1.6	5	-1	3	-0.4%	0.2
CCN(CC)CCn1c(NCc2cccc(OC)c2)nc2ccccc21	-5.5	1	-39	14	-0.5%	-0.5
O=C(C1=C(O)C(=O)N(CCN2CCOCC2)C1c1cccc(F)c1)c1cc2ccccc2o1 (configuration not stated)	-1.9	-2	-9	-15	0.5%	0.3
Cc1cc(SCC(=O)N2CCC(c3noc4ccc(F)cc34)CC2)nc2ccccc12	-2.1	0	-14	0	u	0.2

# Laid out differently: 2 of the compounds above
# Each structure is followed by: D2 agonist | Six1-Eya2 inh | D2 potentiator | TRPML1 blocker | PINK1 expr mod | TRPML1 agonist
> CCN(CC)CCn1c(NCc2cccc(OC)c2)nc2ccccc21
 : -5.5 | 1 | -39 | 14 | -0.5% | -0.5
> O=C(C1=C(O)C(=O)N(CCN2CCOCC2)C1c1cccc(F)c1)c1cc2ccccc2o1 (configuration not stated)
 : -1.9 | -2 | -9 | -15 | 0.5% | 0.3

# Later entries.
Molecule	D2 agonist	Six1-Eya2 inh	D2 potentiator	TRPML1 blocker	PINK1 expr mod	TRPML1 agonist
CC12CCC(O)CC1=CCC1C2CCC2(C)C1CCC21CCC(=O)O1 (configuration not stated)	5.2	4	-2	3	1.7%	0.0
COc1ccc(CNC(=O)CN(Cc2cccs2)C(=O)CCC(=O)Nc2ccccn2)cc1	-1.1	7	-7	8	-0.5%	0.3
CCc1ccc(NS(=O)(=O)c2ccc3[nH]c4c(c3c2)CCCCCC4)cc1	x	x	x	9	-0.5%	1.9
COCCNc1oc(/C=C/c2ccccc2)nc1C#N	-0.7	4	-3	-11	0.7%	-0.6
CCOC(=O)c1c(C)oc2ncnc(Nc3ccc(CC)cc3)c12	x	x	x	23	0.2%	-0.5
Clc1ccc(-c2nnc(SCc3cn4ccsc4n3)n2CC2CCCO2)cc1 (configuration not stated)	-3.4	2	-8	-7	-1.2%	-0.3
Cc1cccc(NS(=O)(=O)c2nnc(NC(=O)c3ccccc3F)s2)c1	-6.7	8	-6	32	-1.0%	-0.6
COc1ccc(-c2noc(CCCC(=O)O)n2)cc1	-4.3	-2	-6	-4	-2.7%	-0.9
O=C(Nc1cccc(Cl)c1)c1ccc(NC2=NC3CS(=O)(=O)CC3S2)cc1 (configuration not stated)	-1.6	0	0	-5	0.1%	-0.1
COC(=O)c1ccc(N2CCN(C)CC2)c(NC(=O)c2cc3ccccc3o2)c1	-2.6	-1	-7	2	3.4%	-0.3
Cn1c(=O)cc(OCCCC(=O)NCCC2=CCCCC2)c2ccccc21	-4.7	-1	-5	9	0.2%	1.3
Cc1nc2cncc(Br)c2n1C	-2.2	1	-7	18	-1.8%	0.8
COc1cccc(CNc2ccc(F)c([N+](=O)[O-])c2)c1O	2.0	-9	-8	26	-1.4%	3.7
CCCNC(=O)C1(CC2CC(c3ccccc3)=NO2)CCN(C(=O)C2(C)CC2)CC1 (configuration not stated)	0.4	3	-11	-17	0.8%	-0.4
Cc1ccnc(NC2c3ccccc3C(=O)N2Cc2ccccc2Cl)c1 (configuration not stated)	-0.8	5	-3	-7	1.5%	-0.1
O=C1C2C3C=CC(C2C(=O)N1C1CCCCC1)C1C2C(=O)N(C4CCCCC4)C(=O)C2C31 (configuration not stated)	4.8	5	-1	-7	5.0%	0.2
O=[N+]([O-])c1cc(CN2CCC(O)CC2)ccc1Cl	1.5	-1	-15	-8	1.3%	-0.2
Cc1ccc(S(=O)(=O)Nc2nc3c(s2)C(=O)CC(C)(C)C3)cc1	-4.6	13	-1	-1	0.9%	3.6
Cc1cccc(N2CCN(C(=O)c3cccc(S(=O)(=O)N4CCCCC4)c3)CC2)c1C	-0.3	8	-14	45	-0.1%	1.4
Cc1cc(OCC(=O)O/N=C(\N)c2ccccc2)cc(C)c1Cl	-4.0	13	-20	3	x	-0.2
COc1ccc(Cl)cc1N(CC(=O)Nc1ccccc1SC)S(C)(=O)=O	-2.9	-2	6	7	3.8%	-0.5
O=C(Nc1ccc2c(c1)OCCO2)c1cccs1	-3.8	-5	-2	26	-1.7%	4.2
CC1CC(=O)N(CC(=O)Nc2ccccc2F)c2ccccc2S1(=O)=O (configuration not stated)	2.4	4	-2	9	-0.1%	-0.9
CCCn1c(=N)n(CC(=O)C(C)(C)C)c2ccccc21	-3.1	-17	-28	-4	1.0%	0.4
CCOc1ccc(-c2oc3ccccc3c(=O)c2O)cc1OCC	x	x	x	-14	1.1%	3.8
Cn1nc(C(=O)Nc2nc3ccccc3[nH]2)ccc1=O	0.7	-6	-2	-8	-1.3%	0.1
CCC(C)[C@H](NC(=O)Nc1ccc(Oc2ccccc2)cc1)C(=O)O (some centres not stated)	-3.6	-1	-1	1	0.8%	-0.2
CC(C)c1nc2c(c(=O)c3ccccc3n2C)c(=O)n1CCc1ccccc1	-6.2	-4	-8	10	-2.4%	u
COC(=O)[C@@]1(Cc2ccc(F)cc2)[C@H]2c3cc(C(=O)N(C)C)n(Cc4cc(F)cc5c4OCOC5)c3C[C@H]2CN1C(=O)c1ccccc1	x	-9	x	x	0.0%	-0.2
COc1ccc(-c2oc(=O)c3cc(OC)c(OC)cc3c2/C=C/c2ccc([N+](=O)[O-])cc2)cc1	-1.5	4	-14	14	0.3%	0.2
COc1ccc(C(=O)NN2C(=O)C3C4C=CC(O4)C3C2=O)cc1 (configuration not stated)	-0.6	7	9	34	-0.7%	-0.2
O=C(Nn1cnc2ccccc2c1=O)c1ccccc1Cl	-1.4	-5	-28	7	x	-0.6
O=C(Cc1cc(=O)[nH][nH]1)N/N=C/c1ccccc1[N+](=O)[O-]	-2.0	1	-23	0	-0.7%	-0.2
CCOC(=O)C1CCN(CCCSc2ccc(C)cc2)CC1	-1.6	-1	-7	27	4.4%	-0.2
Cc1nn(Cc2ccc(C(=O)Nc3ccccc3F)cc2)c(C)c1Cl	0.1	-2	0	-13	10%	1.7
NS(=O)(=O)c1ccc(NC(=O)CN2CCN(Cc3ccccc3)CC2)cc1	-0.8	4	-9	-3	-1.1%	0.1
COc1nc(-c2ccccc2)c2cc(C)ccc2n1	-2.7	-1	-1	17	1.3%	-0.4
COc1ccc(CC(=O)N2CCCc3ccccc32)cc1	-3.9	-1	-15	-5	-0.2%	-0.9
C=CCSc1nnc2c(n1)-c1cccc3cccc-2c13	-0.8	-22	-45	16	1.8%	0.0
c1ccc(C2=NOC(c3nnc(-c4ccccc4)o3)C2)cc1 (configuration not stated)	-1.0	5	-12	27	0.7%	0.0
COc1ccc(/C=C/C(=O)Nc2cc(S(=O)(=O)N3CCOCC3)ccc2N2CCCC2)cc1OC	-1.7	-13	-3	5	-0.2%	-0.1
Cc1ccc(NC(=O)c2oc3ccc(S(=O)(=O)N4CCCCC4)cc3c2C)c(C)c1	x	x	x	-4	0.8%	-0.3
CCCc1cc(=O)oc2cc(OCc3nn[nH]n3)ccc12	-3.7	14	2	-10	-2.1%	-0.5
COc1ccccc1C(=O)Nc1ccc(S(=O)(=O)N(C)c2ccccc2)cc1	-1.5	4	0	-8	-0.2%	0.2

# Ordered by value in D2 agonist (smallest number first): 3 from the list above.
compound | D2 agonist
CCCc1cc(=O)oc2cc(OCc3nn[nH]n3)ccc12 | -3.7
COc1nc(-c2ccccc2)c2cc(C)ccc2n1 | -2.7
Cc1nn(Cc2ccc(C(=O)Nc3ccccc3F)cc2)c(C)c1Cl | 0.1
